MITF inh – blocks MITF activity. TRPM1 promoter luciferase, luminescence, 24 h. inhibition, % (no concentration beside the values). AID 2240. hit rate 0.28% among 37,000;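 active = most replicates at 85% or more, or half of them and the mean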;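 note: human melanocyte line stably carrying TRPM1 promoter luciferase reporter; 0% = vehicle wells and 100% = a positive control; the first replicate is given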
Hedgehog inh – blocks Sonic Hedgehog signaling. Shh-LIGHT2 Gli-luciferase reporter, 30 h. inhibition, % (test concentration not listed). hit rate 2.1% among 22,000;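 active = replicate mean of 65% or more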;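 note: pathway switched on by Shh-conditioned medium diluted 1 in 25 in low serum; 100 nL library stock added to about 40 µL; 0% = median of neutral wells and 100% = positive control level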
PD-1 reverse act – reversal of PD-1 mediated T-cell inhibition | primary human CD4 T cells, PD-L1 beads, CellTiter-Glo 96 h | activation, % (no concentration beside the values) | 29,000 tested, under 10 active | AID 2316;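 active = replicate mean of 50% or more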;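 note: 0% = median vehicle wells and 100% = positive control; 100 nL library stock added to about 50 µL; numbers are from one replicate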
YB-1 expression – YB-1 expression inhibition | delta delta Cp (YB-1 minus CDIP) (concentration not given with the values) | hit rate 0.37% among 30,000 | AID 434959 | U2OS, qRT-PCR YB-1 vs CDIP delta delta Cp, 16 h; hits give high values; zero = DMSO, each unit about twofold;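 active = delta delta Cp rounded down to an integer at or above 3, about 3 SD of DMSO wells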;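 note: higher means less YB-1 transcript or more CDIP transcript relative to DMSO; stock transfer was 100 nL into about 100 µL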
Active calls of the source: *; nt = no result given; & = joins results of further samples. This is a subset, so the mix of outcomes need not match the whole.

Preview, 9 compounds:
entry	SMILES	MITF inh	Hedgehog inh
1	CCCOc1ccc(C(=O)OCCN(CC)CC)cc1N	-3	47
2	COc1ccc(-c2oc3c(CC=C(C)C)c(O[C@@H]4O[C@H](CO)[C@@H](O)[C@H](O)[C@H]4O)cc(O)c3c(=O)c2O[C@@H]2O[C@@H](C)[C@H](O)[C@@H](O)[C@H]2O)cc1	-3	-21
3	CC(Cc1cccc(C(F)(F)F)c1)NCCOC(=O)c1ccccc1 (configuration not stated)	-7	53
4	COc1ccc(C(=O)c2ccccc2)c(O)c1	-30	-7
5	N=c1nc(N2CCCCC2)cc(N)n1O	-8&-10	-30&-45
6	CCCOc1ccc2nc(NC(=O)OC)[nH]c2c1	-1	49
7	Cc1scc2c1N(C(=O)CN1CCN(C)CC1)c1ccccc1NC2=O	-5&3	-17&-76
8	C[C@@H]1CC[C@]2(C(=O)O)CC[C@]3(C)C(=CCC4[C@@]5(C)C[C@@H](O)[C@H](O)[C@@](C)(CO)C5CC[C@]43C)C2[C@H]1C (some centres not stated)	-1	29
9	Nc1c2ccccc2nc2ccccc12	66	-11

entry	PD-1 reverse act	YB-1 expression
1	1.6	-0.057
2	nt	0.18
3	nt	0.42
4	3.8	-0.045
5	nt	0.25&0.33
6	nt	0.27
7	nt	0.047&-0.34
8	-1.4	-0.16
9	nt	1.2

The whole of this part, previewed entries included:
entry	SMILES	MITF inh	Hedgehog inh
1	CCCOc1ccc(C(=O)OCCN(CC)CC)cc1N	-3	47
2	COc1ccc(-c2oc3c(CC=C(C)C)c(O[C@@H]4O[C@H](CO)[C@@H](O)[C@H](O)[C@H]4O)cc(O)c3c(=O)c2O[C@@H]2O[C@@H](C)[C@H](O)[C@@H](O)[C@H]2O)cc1	-3	-21
3	CC(Cc1cccc(C(F)(F)F)c1)NCCOC(=O)c1ccccc1 (configuration not stated)	-7	53
4	COc1ccc(C(=O)c2ccccc2)c(O)c1	-30	-7
5	N=c1nc(N2CCCCC2)cc(N)n1O	-8&-10	-30&-45
6	CCCOc1ccc2nc(NC(=O)OC)[nH]c2c1	-1	49
7	Cc1scc2c1N(C(=O)CN1CCN(C)CC1)c1ccccc1NC2=O	-5&3	-17&-76
8	C[C@@H]1CC[C@]2(C(=O)O)CC[C@]3(C)C(=CCC4[C@@]5(C)C[C@@H](O)[C@H](O)[C@@](C)(CO)C5CC[C@]43C)C2[C@H]1C (some centres not stated)	-1	29

entry	PD-1 reverse act	YB-1 expression
1	1.6	-0.057
2	nt	0.18
3	nt	0.42
4	3.8	-0.045
5	nt	0.25&0.33
6	nt	0.27
7	nt	0.047&-0.34
8	-1.4	-0.16

Carrying on.
entry	SMILES	MITF inh	Hedgehog inh
9	Nc1c2ccccc2nc2ccccc12	66	-11
10	O=C(O)c1cc(=O)c2ccccc2o1	9	-20
11	COc1ccc(-c2cc(C(F)F)nn2-c2ccc(S(N)(=O)=O)cc2)cc1F	-22	15
12	CCN(CCCCOC(=O)c1ccc(OC)c(OC)c1)C(C)Cc1ccc(OC)cc1 (configuration not stated)	7	5
13	CC(C)NNC(=O)c1ccncc1	-6	-82
14	CCCCC(=O)O[C@]1(C(=O)CO)[C@@H](C)CC2C3CCC4=CC(=O)C=C[C@]4(C)[C@@]3(F)C(O)C[C@@]21C (some centres not stated)	-39	56
15	Cc1cc(=O)oc2cc(O)ccc12	-12	-37
16	COc1cc(N)c(Cl)cc1C(=O)N[C@H]1CCN(CCCOc2ccc(F)cc2)C[C@H]1OC	-5	-4

entry	PD-1 reverse act	YB-1 expression
9	nt	1.2
10	nt	-0.45
11	nt	0.17
12	nt	0.15
13	3.1	-0.26
14	nt	0.33
15	1.6	0.054
16	nt	0.21

Following part.
entry	SMILES	MITF inh	Hedgehog inh
17	CCCCOc1cc(C(=O)OCCN(CC)CC)ccc1N	-15	-29
18	CC(C)(C)NCC(O)COc1cccc2c1CC(O)C(O)C2 (configuration not stated)	1	-35
19	CN(C)CCCSc1ccccc1NC(=O)/C=C/c1ccccc1	-8	18
20	C[C@@H]1C[C@H]2[C@@H]3CCC4=CC(=O)C=C[C@]4(C)[C@@]3(Cl)[C@@H](O)C[C@]2(C)[C@@]1(OC(=O)c1ccco1)C(=O)CCl	-2	23
21	CC(C)(C)NCC(O)COc1cccc2c1C[C@H](O)[C@H](O)C2 (some centres not stated)	3	-43
22	CC[C@]12CCCN3CCc4c(n(c5ccccc45)[C@](O)(C(=O)OC)C1)[C@@H]32	-11	9
23	CCn1cc(C(=O)O)c(=O)c2cc(F)c(N3CCNC(C)C3)c(F)c21 (configuration not stated)	6	-28
24	CCCCN(CCCC)CCCOC(=O)c1ccc(N)cc1	1	-50

entry	PD-1 reverse act	YB-1 expression
17	2.3	-0.32
18	5.1	0.88
19	5.7	-0.27
20	-7.0	0.22
21	4.1	-0.24
22	nt	-0.064
23	nt	-0.3
24	3.9	0.39
